# hNpr1 antagonist: blocks ANP-stimulated signaling of human Npr1 receptor. P16066. HEK293 hNpr1 GloSensor cGMP, ANP-stimulated luminescence. Potency, µM (doses to about 46.3 µM), without a hit: at the top dose activity change, negative = inhibition, actives largely listed as inhibitors. 76,000 tested, 1.6% active; active = well fitted inhibition curve with a large enough effect; inconclusive = small, poorly fitted or top-dose-only effect; inactive = no such curve, though single readings can be large or run the other way;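 further: nearly all actives have a fitted effect of over 60% in size; nearly all hits also lower the signal before the agonist is added; a reference antagonist and vehicle were the controls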
# Target sequence (P16066 whole entry, looked up): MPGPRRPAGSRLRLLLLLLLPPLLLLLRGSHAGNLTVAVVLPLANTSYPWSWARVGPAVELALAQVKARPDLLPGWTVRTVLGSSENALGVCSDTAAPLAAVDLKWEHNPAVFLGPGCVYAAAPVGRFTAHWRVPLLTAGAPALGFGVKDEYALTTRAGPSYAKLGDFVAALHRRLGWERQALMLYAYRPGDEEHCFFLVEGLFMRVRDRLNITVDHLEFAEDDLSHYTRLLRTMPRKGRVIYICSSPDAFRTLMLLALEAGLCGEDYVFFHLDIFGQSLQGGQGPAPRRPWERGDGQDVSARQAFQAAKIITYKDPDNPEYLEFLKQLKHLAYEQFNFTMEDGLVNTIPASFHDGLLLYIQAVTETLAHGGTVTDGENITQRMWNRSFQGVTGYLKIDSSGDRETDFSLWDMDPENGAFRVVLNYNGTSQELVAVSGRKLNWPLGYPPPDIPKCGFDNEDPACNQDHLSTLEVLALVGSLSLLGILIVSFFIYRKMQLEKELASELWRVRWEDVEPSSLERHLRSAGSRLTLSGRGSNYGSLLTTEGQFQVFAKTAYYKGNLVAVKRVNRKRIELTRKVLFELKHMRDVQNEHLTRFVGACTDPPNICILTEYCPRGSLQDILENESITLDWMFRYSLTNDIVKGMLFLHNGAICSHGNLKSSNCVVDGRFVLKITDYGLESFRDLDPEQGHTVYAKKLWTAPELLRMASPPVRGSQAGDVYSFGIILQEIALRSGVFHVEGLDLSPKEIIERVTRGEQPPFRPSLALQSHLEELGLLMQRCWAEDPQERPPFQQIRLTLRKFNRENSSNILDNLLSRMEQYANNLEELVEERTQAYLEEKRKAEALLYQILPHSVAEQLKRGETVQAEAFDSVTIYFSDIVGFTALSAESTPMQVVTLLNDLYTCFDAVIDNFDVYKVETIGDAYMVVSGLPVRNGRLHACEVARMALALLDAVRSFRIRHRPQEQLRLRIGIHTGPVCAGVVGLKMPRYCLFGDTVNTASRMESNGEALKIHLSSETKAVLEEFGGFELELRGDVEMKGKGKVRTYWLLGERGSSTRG
#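 Compound pre-incubated 30 min at room temperature on GloSensor-loaded HEK293 cells stably carrying hNpr1 and the pGS-40F cGMP biosensor. Stimulation uses hNppA at 0.1 nM final; luminescence is taken at baseline and 20 min post-agonist.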
# * = called active by the depositor; u = inconclusive; [ ] = remark or other dose. On the % scale 0 is the no-effect control and ±100 the full control effect; potency means the concentration at half of the fitted maximal effect. A portion of the library; rates above refer to the full screens.
entry	Compound	hNpr1 antagonist
1	Cc1cccnc1NC(=O)C1c2ccccc2C(=O)N(C2CCCC2)C12CCCC2 (configuration not stated)	-10.3%
2	COCC(=O)N[C@H]1C[C@@H](c2nc(-c3ccc(Cl)cc3)no2)N(C)C1	-0.2%[70.6 µM]
3	CCOc1ccccc1NC(=O)Cn1nc2n(c1=O)CCCC2	-4.8%
4	Cc1ccc(Cn2ccn3nc4c(c3c2=O)CCCC4)cc1	-13.9%
5	O=C(N[C@@H]1COCC[C@@H]1Oc1ccc(F)cc1)c1cccn2cnnc12	11.0%
6	O=C(c1ccc(F)cc1)N1CCCC2(CNc3ccccc3[S+](=O)([O-])N2)C1 (configuration not stated)	-6.7%
7	COC[C@@H]1CN(C(=O)COc2ccccc2)C[C@H]1c1nc(C)no1	0.7%
8	CC(=O)Nc1ccc(CN2CCCC(c3nc4ccc(F)cc4c(=O)[nH]3)C2)cc1 (configuration not stated)	3.3%
9	O=S(=O)(c1cnc[nH]1)N1CCC(c2nc(CCOCC3CCOCC3)no2)C1 (configuration not stated)	6.1%
10	COc1ccccc1NC(=O)Nc1ccc(=O)n2c1[C@@H]1C[C@@H](CN(C3CCN(C)CC3)C1)C2	-0.3%
11	CCOc1ccc(C(=O)N2CCCN(c3cc(-c4ccc(OC)cc4)[nH]n3)CC2)cc1OCC	-5.7%
12	CCCn1cnc2c1CN(C(=O)c1ccccc1)[C@H](C(=O)OC)C2	5.6%[70.6 µM]
13	CN1CCN(c2nc3c(c(=O)[nH]2)CCN(Cc2ccc(F)c(Cl)c2)CC3)CC1	-0.4%
14	Cc1ccc(NC(=O)Cn2c(-c3ccc(F)cc3)nc(C)c(CCO)c2=O)cc1	2.9%
15	Fc1cccc(CN2CCNc3cc(Nc4cccnc4)ncc3C2)c1	-8.6%[70.6 µM]
16	CC1CCC2(CC1)NC(=O)N(CC(=O)Nc1cc(C(F)(F)F)ccc1Cl)C2=O (configuration not stated)	8.8%
17	CCn1nccc1C(=O)N1CCCC(c2nnc(Cn3cccn3)n2C)C1 (configuration not stated)	0.6%
18	Cc1cn2cc(CNC(=O)c3ccc(CN4CCCN(C)CC4)[nH]c3=O)nc2s1	-1.4%
19	Cc1noc(C)c1-c1nccc2c(=O)cc(N(C)C3CCOCC3)oc12	0.7%[70.6 µM]
20	O=C(NCc1nnc2c(-c3nc(C4CC4)no3)cccn12)c1cccc2[nH]ccc12	3.0%
21	CC1(C)CNC(=O)c2nc(C3CCCN(Cc4ccccc4)C3)[nH]c2C1 (configuration not stated)	3.5%
22	CC1=C(C(=O)OC(C)C)C(c2cccc(F)c2)N2C(CC(=O)NCc3ccco3)=CSC2=N1 (configuration not stated)	-21.1%
23	Cc1cn2nc(C(=O)N3CCC(C(=O)NC4CCC(C)CC4)CC3)cc2c(=O)[nH]1 (configuration not stated)	1.8%
24	O=C(NC[C@H]1OC[C@@H](NCc2ccccn2)[C@@H]1O)C1CCCC1	2.0%[70.6 µM]
25	Cc1cccc(-c2nccc3c(=O)cc(N4CCN(C)CC4)oc23)c1	0.5%[70.6 µM]
26	Cc1noc(C)c1[S+](=O)([O-])N1CCC2(CC1)C(=O)NN=C2c1ccncc1	0.0%
27	COCCNC(=O)c1cccc2c1CCN2C(=O)C1CC1	7.8%
28	Cc1ccccc1C(=O)N1C(C(=O)NCc2ccccc2)COC12CCN(C(=O)c1ccco1)CC2 (configuration not stated)	-4.7%
29	CC(C)N1CCC(OCCCNC(=O)C2Cn3cccc3C(=O)N2)CC1 (configuration not stated)	0.4%
30	COc1ccccc1-c1ccnc(N[C@H]2CO[C@H]3[C@@H]2OC[C@@H]3NC(=O)c2ccc(C(F)(F)F)cc2)n1	u

# More records
entry	Compound	hNpr1 antagonist
31	CN(Cc1nc(-c2ccccn2)no1)C(=O)C1CC2(CCNCC2)CN1 (configuration not stated)	3.4%
32	Cc1cccc(-c2cc(C3CCN(C(=O)Nc4ccccc4Cl)CC3)[nH]n2)c1	-6.8%
33	Cn1cc(-c2ccccc2Oc2ccccc2)c2nc(CN3CCNC(=O)C3)cn2c1=O	0.3%[70.6 µM]
34	O=C(Cc1ccc(F)cc1)N1CCC(c2nn(-c3ccccc3)c(=O)[nH]2)CC1	-5.0%
35	COc1ccc(N2CCN(C(=O)c3c(OC)cc(=O)n4c3CCCC4)CC2)cc1	2.1%
36	CCOC(=O)C1=CN(CC(=O)Nc2cc(C)ccc2C)S(=O)(=O)N=C1C	-16.3%
37	CC(C)C(=O)N1CCC2(CC1)OC(=O)N(Cc1ccccc1F)C2(C)c1ccccc1 (configuration not stated)	-0.5%[70.6 µM]
38	COc1ccc(C(=O)N2CC(N(C3CCOCC3)S(C)(=O)=O)C2)cc1OC	1.1%
39	CCC(CC)C(=O)Nc1ccc([C@@H](O)[C@H]2COCC(=O)N2Cc2ccccc2)cc1	-1.1%[70.6 µM]
40	CCCCN1C(=O)[C@@H]2C[C@@H](O)CN2C2(CN(C(C)C)C2)C1=O	2.7%[70.6 µM]
41	O=C1CCN(Cc2ccncc2)CCCC(C(=O)Nc2cccnc2)CCN1 (configuration not stated)	1.3%
42	O=C(c1ccccc1Cl)N1CCn2c(nn(-c3ccncc3)c2=O)C1	-2.5%
43	CC(C)N1C(=O)C2(CCCCC2)C1C(=O)N1CCN(c2ccccc2)CC1 (configuration not stated)	-6.8%
44	CC(=O)Nc1ccc(S(=O)(=O)N2CC[C@@H](CC(=O)O)[C@@H](CCN3CCCCC3)C2)cc1	-3.3%
45	Cc1c(Cl)c(C(=O)N2C[C@@H](CN3CCCN(C)CC3)[C@@H](CO)C2)nn1C	2.4%
46	CCNC(=O)c1ccc(-c2cc(NC3CCCC3)nc3[nH]ccc23)nc1	-1.5%
47	O=C(NCc1ccc2sccc2c1)C1CC(=O)N(C2CC2)C1 (configuration not stated)	-3.0%
48	O=C(O)c1cc2cn(C3CCCC3)cc2s1	0.4%
49	COc1cccnc1C(=O)N1CCC(N2CCCC(C(=O)N3CCCC3)C2)CC1 (configuration not stated)	3.9%
50	COc1cccc(CN2CCc3c(cc(C(=O)Nc4ccccc4OC)n3C)C2)c1	-2.7%
51	CN(Cc1ccc(F)cc1)Cc1cn(-c2ccccc2)nn1	-8.9%
52	O=C(c1ccccc1)N1CCn2c(nn(-c3ccc([N+](=O)[O-])cc3)c2=O)C1	1.4%
53	Cc1ccccc1OCC(=O)N1CCC2(CC1)NC(=O)N(Cc1ccccc1)C2=O	4.0%
54	CCS(=O)(=O)Nc1ccc(C2(C(=O)NCc3ccc4c(c3)OCO4)CCCCC2)cc1	4.0%
55	Cc1ccc(CNC(=O)Cn2ccn3nc4c(c3c2=O)CCCC4)cc1	3.1%
56	C[C@H]1[C@@H]2[C@@H](O)C([C@H](C)C(=O)N3CCCC3)CC[C@@]2(C)CC[C@@H]1NC(=O)Cc1ccccc1 (some centres not stated)	-1.5%
57	COCCC(=O)N1CCC(N2C[C@H](O)C[C@H]2C(=O)NC2CCCCC2)CC1	4.7%
58	Clc1ccccc1C1Cn2cnc(-c3nc(-c4ccccc4)no3)c2CO1 (configuration not stated)	-20.8%
59	Cc1csc(Nc2ccc3ncn(Cc4ccccc4)c(=O)c3n2)n1	0.9%[70.6 µM]
60	COCCn1ncc(N2CCCC(CC(=O)NCCN3CCCC3)C2)cc1=O (configuration not stated)	5.0%

# New compounds follow.
entry	Compound	hNpr1 antagonist
61	O=C(CCc1c[nH]c2ccccc12)NCC(=O)N1CCCCCCNC(=O)CC1c1ccccc1 (configuration not stated)	2.5%
62	c1ccc(NCCn2cc(-c3cncnc3)nn2)cc1	5.9%
63	CN(C)CCOCC1(C)COc2ccc(C(=O)NCc3cccc(F)c3)cc2N1 (configuration not stated)	3.7%[70.6 µM]
64	CCOc1ccccc1C(=O)N1CCN(C(=O)c2nnn3c2COC(c2ccc(Cl)cc2)C3)CC1 (configuration not stated)	u
65	O=C1C(c2ccccc2)CC2(CCN(Cc3cccc(O)c3)CC2)CN1C1CC1 (configuration not stated)	-10.6%
66	COC1CN(C2CCN(C(=O)NC3CCCCC3)CC2)C12CCOCC2 (configuration not stated)	4.1%
67	O=C(c1ccccc1)N1CCC2(CNc3ccccc3[S+](=O)([O-])N2)C1 (configuration not stated)	0.2%
68	Cn1cnc(S(=O)(=O)N2CCCN(S(=O)(=O)c3ccccc3)CCC(=O)NCC2)c1	2.8%
69	COc1ccc(C2=NOC3(CCN(C(=O)c4ccc(C)cc4)C3)C2)cc1 (configuration not stated)	-9.9%
70	Cc1ccc(C2Cn3nnc(C(=O)N4CCN(C(=O)c5ccco5)CC4)c3CO2)cc1 (configuration not stated)	-3.0%
71	CCC(C)NC(=O)CN1CN(c2ccccc2)C2(CCN(C(=O)Nc3ccccc3C)CC2)C1=O (configuration not stated)	-1.1%
72	COCCOC1CCN(C(=O)c2cccc3[nH]ccc23)CC1	0.0%
73	COc1cccc(-c2cc(C3CCN(C(=O)NC4CCCC4)CC3)[nH]n2)c1	-21.7%
74	COCCN1CCN(C(=O)[C@@H]2Cc3cn(Cc4cc(C)on4)c4cccc(c34)[C@H](CC(C)C)N2)CC1	-0.8%
75	Cc1ccccc1-n1nc(C)c2c1NC(=O)CC2c1cccc(C#N)c1 (configuration not stated)	5.7%
76	Cc1nn(-c2ccc(C(F)(F)F)cc2)c(C)c1[C@@H]1C=C[C@@H](NC(=O)CSCC(=O)O)C1	-2.1%
77	CC(C)NC(=O)CN1CCN(Cc2cc(=O)c3cccc(Cl)c3[nH]2)CC1	-9.7%
78	CC1(C)[C@H]2CC[C@@H](CNC(=O)c3ccc4ccccc4n3)[C@@H]1C2	0.4%[70.6 µM]
79	COCC(=O)N[C@@H]1CN(S(C)(=O)=O)C[C@H]1CN(C)C	0.8%
80	O=C(NC1C[C@H]2CC[C@@H](C1)N2C(=O)Cc1ccc(F)cc1)c1ccncc1 (some centres not stated)	-3.3%
81	O=C(O)Cn1nc(C2CC2)nc1CCc1nc2ccccc2s1	1.4%
82	COc1ccc(CNC(=O)Cn2c(=O)c(-c3noc(C)n3)c3n(c2=O)CCCC3)cc1	6.8%
83	Cn1c(Cn2ccnc2)nnc1C1CCCN(C(=O)c2sccc2N)C1 (configuration not stated)	1.1%
84	O=C(NCCCc1nc2ccccc2[nH]1)C1CC(=O)N(c2n[nH]c3ccccc23)C1 (configuration not stated)	-3.5%
85	N#Cc1ccc(CN2CCC3(CC(Cc4ccccc4)=NO3)C2)cc1 (configuration not stated)	0.0%
86	COc1ccc2nc([C@H]3CCN(C4CCN(C(C)=O)CC4)C3)[nH]c2c1	1.4%[70.6 µM]
87	COc1cccc(C(=O)N2CCN(c3cc(C(F)(F)F)ncn3)CC2)c1OC	-10.3%
88	O=C(NC1CC1)c1ccc2ccnn2c1	0.5%[70.6 µM]
89	COc1ccc(-c2noc([C@@H]3CCCN3C(=O)c3ccc(F)c(F)c3)n2)cc1OC	-3.9%
90	NC(=O)c1cccnc1N1CCC2(CCCN(Cc3cccc(F)c3F)C2)C1 (configuration not stated)	-0.1%

# (list continues)
entry	Compound	hNpr1 antagonist
91	COc1cc(NC(=O)Cn2cccc2-c2nc(-c3ccc(F)cc3)no2)cc(OC)c1OC	0.9%
92	Cc1cc(=O)n(CC(=O)Nc2ccc(N(C)C)cc2)c(-c2ccc(F)cc2)n1	-2.4%
93	COc1ccc(CNC(=O)N2CCCCCC2CN2CCOCC2)cc1 (configuration not stated)	-7.1%
94	Cc1cc(F)ccc1NC(=O)CCC1CCCN(C(=O)CC2=CCCCC2)C1 (configuration not stated)	-12.6%
95	Cc1ccc([S+](=O)([O-])N2CCC(c3nn(C)c(=O)[nH]3)CC2)cc1	0.0%
96	CCn1ccc(C(=O)N2CCCC(c3noc(COC)n3)C2)n1 (configuration not stated)	0.0%
97	CC1=C[C@@H](CNC(=O)CCC(=O)O)[C@H](C(C)C)C[C@H]1CC(=O)N1CCN(C)CC1	4.1%[70.6 µM]
98	CCc1ccccc1NC(=O)CCn1ccn2nc3c(c2c1=O)CCCC3	-13.7%
99	CCc1nc(-c2c3n(c(=O)n(Cc4ccccc4C)c2=O)CCCC3)no1	-8.6%
100	Cc1nc(N2CCC(NC(=O)c3nccc4ccccc34)CC2)cc(C(F)(F)F)n1	11.2µM*
101	Cc1cc(-c2cnc3[nH]cc(CC(N)=O)c3c2)ccn1	-0.5%[70.6 µM]
102	OC1CCOC2(CCN(Cc3ccc4cc[nH]c4c3)CC2)C1 (configuration not stated)	0.0%
103	CC1=C[C@@H](CNC(=O)Nc2ccccc2)[C@H](C(C)C)C[C@H]1CC(=O)NCCN1CCOCC1	1.2%
104	O=C(NCCCn1ccc2ccccc21)C1CC(=O)N(C2CCCC2)C1 (configuration not stated)	2.8%
105	COCc1noc([C@@H]2CC(F)(F)CN2C(=O)c2cnc(C)cn2)n1	-1.0%
106	Cc1ccc2nc3n(c2c1)[C@@H](CNCc1ccccc1)COC3	u
107	O=C(Cc1cccc(Cl)c1)N1CCC(Oc2ncccc2C(=O)N2CCCCC2)C1 (configuration not stated)	-2.2%
108	CCCS(=O)(=O)N1CCC(CC(=O)NCc2ccccc2)C1 (configuration not stated)	-0.9%

# Some of these compounds in order of their number in hNpr1 antagonist, rising:
entry	Compound	hNpr1 antagonist
22	CC1=C(C(=O)OC(C)C)C(c2cccc(F)c2)N2C(CC(=O)NCc3ccco3)=CSC2=N1 (configuration not stated)	-21.1%
58	Clc1ccccc1C1Cn2cnc(-c3nc(-c4ccccc4)no3)c2CO1 (configuration not stated)	-20.8%
36	CCOC(=O)C1=CN(CC(=O)Nc2cc(C)ccc2C)S(=O)(=O)N=C1C	-16.3%
102	OC1CCOC2(CCN(Cc3ccc4cc[nH]c4c3)CC2)C1 (configuration not stated)	0.0%
38	COc1ccc(C(=O)N2CC(N(C3CCOCC3)S(C)(=O)=O)C2)cc1OC	1.1%
23	Cc1cn2nc(C(=O)N3CCC(C(=O)NC4CCC(C)CC4)CC3)cc2c(=O)[nH]1 (configuration not stated)	1.8%
75	Cc1ccccc1-n1nc(C)c2c1NC(=O)CC2c1cccc(C#N)c1 (configuration not stated)	5.7%

# Compound activity as filed in PubChem.
